PMP22 txn prim – Cell-based coincidence reporter assay to measure PMP22 gene transcription in S16 Pmp22-F2sN cells - Primary screen. S16 Pmp22-F2sN Schwann cells (luciferase reporters placed in the Pmp22 gene), FLuc/NLuc coincidence luminescence, 24 h. Potency, µM (series often up to 57.5 µM), for the others: top-dose activity change, negative = inhibition, actives largely listed as inhibitors. 43,000 tested, 2% active. AID 1508649, 2021; active = clear falling dose curves in both reporters; inconclusive = both reporters move, but less clearly or upward; inactive = either reporter flat; the % is the NLuc reporter signal; further: on the % scale 0 is the no-effect control and ±100 the full control effect; some results filed as inactive show a strong effect at the top dose
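Reporter cells (S16 Pmp22-F2sN, 500–1,000 per well) exposed to compounds for 24 h, 37C, 5% CO2; lysis with FLuc read after 10 min, then Stop&Glo and NLuc read after 10 min.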
HTT promoter inh – Primary qHTS for Identification of Small Molecule Inhibitors of Huntingtin Promoter Activity | AID 1508623, 2021 | Potency, µM (doses to about 57.5 µM), for the others: at the top dose activity change, negative = inhibition, hits mostly inhibitors | 48,000 tested, 0.93% active | HEK293 HTT promoter firefly luciferase reporter (activity 0% = vehicle and -100% = no light), 24 h; active means well fitted inhibition curve with a large enough effect; inconclusive means small, poorly fitted or top-dose-only effect; inactive means no such curve, though single readings can be large or run the other way; further: nearly all actives have a fitted effect of over 50% in size
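Luminescence was read after Dual-Glo reagent and a 10 min room-temperature incubation. Values were normalized to vehicle (0% activity) and zero RLU (-100% activity). Reporter HEK293 cells had been exposed to compounds (up to 57.5 uM final) for 24 h.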
* = called active by the depositor; ? = inconclusive; · = no result given; & = joins results of further samples; [ ] = remark or other dose. Potency means the concentration at half of the fitted maximal effect.

Preview:
#1 CCOC(=O)c1scc(-c2ccc(C)cc2)c1S(=O)(=O)N1CCN(c2ccccc2)CC1
  PMP22 txn prim: -8%
  HTT promoter inh: -24%
#2 CCN(CC)CCNC(=O)c1cc2c(-c3cccc(OC)c3)nn(C)c2s1
  PMP22 txn prim: ?
  HTT promoter inh: -20%
#3 COC(=O)c1ccc(C2c3c(-c4ccc(Br)cc4)n[nH]c3C(=O)N2c2ccc(Cl)cc2)cc1 (centres undefined)
  PMP22 txn prim: ?
  HTT promoter inh: ?

This part in full, repeating the preview:
#1 CCOC(=O)c1scc(-c2ccc(C)cc2)c1S(=O)(=O)N1CCN(c2ccccc2)CC1
  PMP22 txn prim: -8%
  HTT promoter inh: -24%
#2 CCN(CC)CCNC(=O)c1cc2c(-c3cccc(OC)c3)nn(C)c2s1
  PMP22 txn prim: ?
  HTT promoter inh: -20%
#3 COC(=O)c1ccc(C2c3c(-c4ccc(Br)cc4)n[nH]c3C(=O)N2c2ccc(Cl)cc2)cc1 (centres undefined)
  PMP22 txn prim: ?
  HTT promoter inh: ?
#4 CC(C)c1ccc(NC(=O)Cn2nnc(C(=O)NCc3cccs3)c2N)cc1
  PMP22 txn prim: 6%
  HTT promoter inh: -9%
#5 COc1ccccc1C(=O)Nc1nnc(S(=O)(=O)N2CCN(c3ccc(F)cc3)CC2)s1
  PMP22 txn prim: 36%
  HTT promoter inh: -22%
#6 CCCCN(CCCNC(=O)CN1N=C(c2ccc(C)cc2)CCC1=O)c1ccccc1
  PMP22 txn prim: -24%
  HTT promoter inh: ?
#7 COc1cccc(NC(=O)Cn2cc(S(=O)(=O)Cc3ccccc3F)c3ccccc32)c1
  PMP22 txn prim: ?
  HTT promoter inh: ?
#8 COc1ccccc1CNc1ccc(-c2nc(-c3ccccc3C)no2)cc1[N+](=O)[O-]
  PMP22 txn prim: ?
  HTT promoter inh: -6%
#9 O=C(/C=C/c1ccccc1)Nc1cc(-c2nc3cc(Cl)ccc3o2)ccc1Cl
  PMP22 txn prim: -2%
  HTT promoter inh: 39%[activator]
#10 COc1cc(CCC(=O)NCc2ccc3c(c2)CCN3C(=O)c2ccccc2)cc(OC)c1OC
  PMP22 txn prim: ?
  HTT promoter inh: ?
#11 Cc1ccc(-c2nc3c4ccccc4n(Cc4cccc(Cl)c4)c(=O)n3n2)cc1
  PMP22 txn prim: 1%
  HTT promoter inh: -19%
#12 COc1cc(Cl)c(C)cc1NC(=O)c1cc(CN2CCOCC2)on1
  PMP22 txn prim: -15%
  HTT promoter inh: 2%
#13 COc1ccc(C2C(C(N)=O)=C(C)Nc3nc(-c4ccccc4Cl)nn32)cc1 (centres undefined)
  PMP22 txn prim: -73%
  HTT promoter inh: -1%
#14 O=C(Cn1c(-c2cccs2)cc2ccccc21)NCc1ccccc1Br
  PMP22 txn prim: ?
  HTT promoter inh: ?
#15 O=C(NCc1ccc(Cl)cc1)C1CCCN(c2nc3ccccc3n3cccc23)C1 (centres undefined)
  PMP22 txn prim: ?
  HTT promoter inh: ?
#16 CCC(C)NC(=O)CSc1nc2cc3c(cc2c(=O)n1CCCCCC(=O)NCc1ccc2c(c1)OCO2)OCO3 (centres undefined)
  PMP22 txn prim: -2%
  HTT promoter inh: -10%
#17 NC(=O)c1nnn(Cc2cc(Cl)c(C(=O)c3ccc(Cl)cc3)c(Cl)c2)c1N
  PMP22 txn prim: ·
  HTT promoter inh: 2%
#18 Cc1csc2nc(COc3ccccc3NC(=O)c3ccc(C(C)(C)C)cc3)cc(=O)n12
  PMP22 txn prim: -23%
  HTT promoter inh: 4%
#19 CCC(=O)Nc1ccc(CC)cc1-c1nc2ccccc2n(Cc2ccccc2)c1=O
  PMP22 txn prim: -20%
  HTT promoter inh: -25%
#20 CCCCNC(=O)C(CC)Sc1nnc(-c2cccc(F)c2)c(-c2cccc(F)c2)n1 (centres undefined)
  PMP22 txn prim: ?
  HTT promoter inh: -11%
#21 Cn1c(=O)oc2cc(S(=O)(=O)N3CCC(C(=O)NCc4ccccc4)CC3)ccc21
  PMP22 txn prim: -14%
  HTT promoter inh: -14%
#22 Cc1cccc(CC(=O)NCCc2csc(-c3ccc(C(F)(F)F)cc3)n2)c1
  PMP22 txn prim: -5%
  HTT promoter inh: ?
#23 O=C(O)c1cc(=O)[nH]c(=O)[nH]1
  PMP22 txn prim: ·
  HTT promoter inh: -6%&-2%
#24 CCOc1cc(CNCCSc2nnnn2-c2ccccc2)cc(Cl)c1OC
  PMP22 txn prim: ?
  HTT promoter inh: ?
#25 CCOC(=O)c1cnn(-c2ccc(OC)cc2)c1C1CCN(C(=O)OC(C)(C)C)CC1
  PMP22 txn prim: ?
  HTT promoter inh: -28%

3 entries drawn at random from those above:
#2 CCN(CC)CCNC(=O)c1cc2c(-c3cccc(OC)c3)nn(C)c2s1
  PMP22 txn prim: ?
  HTT promoter inh: -20%
#4 CC(C)c1ccc(NC(=O)Cn2nnc(C(=O)NCc3cccs3)c2N)cc1
  PMP22 txn prim: 6%
  HTT promoter inh: -9%
#23 O=C(O)c1cc(=O)[nH]c(=O)[nH]1
  PMP22 txn prim: ·
  HTT promoter inh: -6%&-2%

Next section:
#26 Cc1oc(-c2ccccc2Cl)nc1CS(=O)CC(=O)NCc1ccccc1Cl (centres undefined)
  PMP22 txn prim: -1%
  HTT promoter inh: -3%
#27 COc1ccccc1C(=O)Oc1c(Sc2ccccc2)c(C)nn1-c1ccccc1
  PMP22 txn prim: ?
  HTT promoter inh: ?
#28 COc1ccc(Cl)cc1NC(=O)Cn1cnc2c1c(=O)n(C)c(=O)n2C
  PMP22 txn prim: ?
  HTT promoter inh: -2%
#29 COc1cc(C2CC(=O)c3cnc(N4CCN(CCO)CC4)nc3C2)cc(OC)c1OC (centres undefined)
  PMP22 txn prim: ?
  HTT promoter inh: -27%
#30 O=C(NCC(c1cccnc1)N1CCc2ccccc21)c1ccc(F)c(F)c1 (centres undefined)
  PMP22 txn prim: -18%
  HTT promoter inh: ?
#31 CCOc1ccccc1CNC(=O)CCCN1C(=O)c2cccnc2Oc2ccc(Cl)cc21
  PMP22 txn prim: ?
  HTT promoter inh: -12%
#32 COc1ccc(C2=C(C)C(N3CCC(C(=O)Nc4ccccc4F)CC3)=NS2(=O)=O)cc1
  PMP22 txn prim: -34%
  HTT promoter inh: -27%
#33 Cc1ccccc1NC(=O)c1c(NC(=O)c2ccccc2F)sc2c1CCC(C)C2 (centres undefined)
  PMP22 txn prim: -30%
  HTT promoter inh: -2%
#34 CCN(CC)c1ccc(NC(=O)CCS(=O)(=O)c2cc3c(cc2Cl)NC(=O)CO3)c(C)c1
  PMP22 txn prim: ?
  HTT promoter inh: 3%
#35 CCOc1ccc(-c2nc(Cn3c(=O)cc(-c4ccccc4)c4c(C)nn(C)c43)c(C)o2)cc1OC
  PMP22 txn prim: -10%
  HTT promoter inh: 0%
#36 CCCSc1ncc(Cl)c(C(=O)Nc2c(C(=O)c3ccc(C)cc3)oc3ccccc23)n1
  PMP22 txn prim: -13%
  HTT promoter inh: -8%
#37 Cn1c(=O)c2c(nc(Oc3ccc(C#N)cc3)n2Cc2ccc(Cl)cc2Cl)n(C)c1=O
  PMP22 txn prim: 6%
  HTT promoter inh: -2%
#38 COc1ccc(CCNC(=O)c2cc(C)nc3c2c(C)nn3-c2ccc(C)cc2)cc1OC
  PMP22 txn prim: -30%
  HTT promoter inh: ?
#39 COc1ccc(Nc2oc(/C=C/c3ccccc3OC)nc2C#N)cc1
  PMP22 txn prim: ?
  HTT promoter inh: 28%
#40 CCOc1ccccc1NC(=O)C1CCCN(S(=O)(=O)c2c(C)[nH]c(=O)[nH]c2=O)C1 (centres undefined)
  PMP22 txn prim: 3%
  HTT promoter inh: -7%
#41 Cc1ccccc1CN1C(=O)c2ccccc2S(=O)c2ccc(C(=O)NCc3ccco3)cc21 (centres undefined)
  PMP22 txn prim: ?
  HTT promoter inh: -23%
#42 Cc1ccc(C)c(S(=O)(=O)c2nnn3c2nc(N2CCCCC2)c2sccc23)c1
  PMP22 txn prim: ?
  HTT promoter inh: ?
#43 COc1ccc(-c2cc(C(F)(F)F)n3nc(-c4ccc(Cl)cc4)cc3n2)cc1OC
  PMP22 txn prim: 0%
  HTT promoter inh: -5%
#44 Cc1ccc(S(=O)(=O)c2cn(CC(=O)Nc3ccc(F)cc3)c3cc4c(cc3c2=O)OCO4)cc1
  PMP22 txn prim: -19%
  HTT promoter inh: -24%
#45 COc1ccc(Cn2c(=O)[nH]c3cc(C(=O)N4CCN(c5cccc(OC)c5)CC4)ccc3c2=O)cc1
  PMP22 txn prim: ?
  HTT promoter inh: 0%
#46 CCOC(=O)c1cccc(NC(=O)C2Cc3ccccc3N2C(=O)c2ccccc2)c1 (centres undefined)
  PMP22 txn prim: ?
  HTT promoter inh: -1%
#47 Cc1cccn2c(=O)c3cc(C(=O)NCCc4ccc(S(N)(=O)=O)cc4)n(C)c3nc12
  PMP22 txn prim: 0%
  HTT promoter inh: -29%
#48 Cc1ccc2nc(N(Cc3cccnc3)C(=O)Cc3ccccc3)sc2c1
  PMP22 txn prim: -19%
  HTT promoter inh: -10%
#49 O=C(c1ccc(Cl)cc1)n1nc(-c2ccccc2)nc1NCc1ccco1
  PMP22 txn prim: ?
  HTT promoter inh: 20%
#50 COc1ccc(CNC(=O)C2CCN(S(=O)(=O)c3cccc(-c4noc(C)n4)c3)CC2)cc1
  PMP22 txn prim: -29%
  HTT promoter inh: -16%

Filtered by structure: the compounds so far containing an NH in an aromatic ring
#3 COC(=O)c1ccc(C2c3c(-c4ccc(Br)cc4)n[nH]c3C(=O)N2c2ccc(Cl)cc2)cc1 (centres undefined)
  PMP22 txn prim: ?
  HTT promoter inh: ?
#23 O=C(O)c1cc(=O)[nH]c(=O)[nH]1
  PMP22 txn prim: ·
  HTT promoter inh: -6%&-2%
#40 CCOc1ccccc1NC(=O)C1CCCN(S(=O)(=O)c2c(C)[nH]c(=O)[nH]c2=O)C1 (centres undefined)
  PMP22 txn prim: 3%
  HTT promoter inh: -7%
#45 COc1ccc(Cn2c(=O)[nH]c3cc(C(=O)N4CCN(c5cccc(OC)c5)CC4)ccc3c2=O)cc1
  PMP22 txn prim: ?
  HTT promoter inh: 0%

The main list resumes, starting two compounds before the break.
#49 O=C(c1ccc(Cl)cc1)n1nc(-c2ccccc2)nc1NCc1ccco1
  PMP22 txn prim: ?
  HTT promoter inh: 20%
#50 COc1ccc(CNC(=O)C2CCN(S(=O)(=O)c3cccc(-c4noc(C)n4)c3)CC2)cc1
  PMP22 txn prim: -29%
  HTT promoter inh: -16%
#51 Cc1ccc(C)c(Cn2c(C(C)NC(=O)c3ccccc3)nc3ccccc32)c1 (centres undefined)
  PMP22 txn prim: 17%
  HTT promoter inh: -3%
#52 Cc1ccc(-n2ncc(C(=O)N3CCCCC3)c2C2CCN(C(=O)OC(C)(C)C)CC2)c(C)c1
  PMP22 txn prim: -13%
  HTT promoter inh: -19%
#53 CC[C@@H]1C=C(C)C[C@H](C)C[C@H](OC)[C@H]2O[C@@](O)(C(=O)C(=O)N3CCCC[C@@H]3C(=O)O[C@H](C(C)=C[C@@H]3CC[C@H](Cl)[C@H](OC)C3)[C@H](C)[C@@H](O)CC1=O)[C@H](C)C[C@H]2OC
  PMP22 txn prim: ·
  HTT promoter inh: -11%
#54 COc1ccc2c(c1)c(CC(=O)Nc1ccc(C(C)=O)cc1)c(C)n2C(=O)c1ccc(Cl)cc1
  PMP22 txn prim: -26%
  HTT promoter inh: -24%
#55 Cc1ccc(NC(=O)Cn2nnc(C(=O)NCCc3ccccc3)c2N)cc1
  PMP22 txn prim: 0%
  HTT promoter inh: -1%
#56 COc1cc(/C=C(\C#N)c2nc3ccccc3c(=O)[nH]2)cc(OC)c1OC
  PMP22 txn prim: -6%
  HTT promoter inh: 14%
#57 Cc1ccc(C)c(Nc2nn3c(=O)c4ccc(C(=O)N(C)Cc5ccccc5)cc4nc3s2)c1
  PMP22 txn prim: -13%
  HTT promoter inh: ?
#58 COc1ccccc1Cc1nc2ccccc2nc1SCC(=O)NCc1ccccc1Cl
  PMP22 txn prim: 9%
  HTT promoter inh: -3%
#59 COc1ccc(C=Cc2cc(OC)c(OC)c(OC)c2)cc1O
  PMP22 txn prim: ·
  HTT promoter inh: -27%

Screening results as filed in PubChem BioAssay.
